Assay outcomes from PubChem BioAssay.
Tg IFNy HTS: blocks Toxoplasma gondii growth in the presence of IFN-gamma | Toxoplasma gondii growth in IFN-gamma-treated host cells; active compounds read low; reference of the scale not given here | activity change, negative = inhibition, %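 (about 20 µM by stock and volumes)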 | hit rate 3.8% among 69,000 | AID 1259416;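 active = below -70%; inconclusive = fit judged invalid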;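 note: host cells are HeLa cells infected with Toxoplasma gondii; parasite growth read as luciferase light; one replicate is shown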
Starred values were filed as active, the others as inactive; ? = inconclusive; & = joins results of further samples. These rows are one share of the data (hit frequency here may not be typical).

entry	structure	Tg IFNy HTS
1	Cc1noc(C)c1S(=O)(=O)N1CCCC1c1cc(CCOc2ccccc2F)[nH]n1 (stereo not drawn)	-12
2	CCN(CC)c1nc(Nc2ccc(OC)cc2)nc(Nc2ccc(OC)cc2)n1	-97*
3	CCOc1ccccc1CN(C)Cc1cc(-c2ccncc2)no1	21
4	O=C(O)CN1C2CCC(C2)[C@H]1C(=O)Cc1ccco1 (stereo partly drawn)	3
5	C[C@@H]1CN([C@H](C)CO)C(=O)c2cc(NS(=O)(=O)c3ccc(F)cc3)ccc2O[C@@H](C)CCCCO[C@H]1CN(C)C(=O)Nc1ccc2c(c1)OCO2	263
6	COc1ccccc1C(=O)Nc1ccc2c(c1)C(=O)N(C)C[C@@H](OC)[C@H](C)CN(C(C)=O)[C@@H](C)CO2	56
7	Cc1cc2nc(C3CCCN3C(=O)CC3(C)C(=O)N=C4C=CC=CN43)[nH]c2cc1C (stereo not drawn)	21
8	Cc1cc2c(cc1C(=O)N1CCC3(CN(C)C(=O)O3)C1)OCCO2 (stereo not drawn)	82
9	O=C(NC(=O)c1sc2ccccc2c1Cl)c1ccccc1O	-107*
10	CN1C[C@@H]2CC[C@@]3(N=C(c4ccccc4)NC3=O)[C@@H]2C1	-29
11	Cc1[nH]c2c(C)ccc(C)c2c1CC(=O)NCCN(C)S(C)(=O)=O	19
12	C/C=C/c1ccc([C@@H]2[C@@H](CN(CC)C(C)=O)N(Cc3cccnc3)[C@H]2CO)cc1	-15
13	COC1C2CCC1N(C(=O)COc1ccc(F)cc1)CCO2 (stereo not drawn)	1
14	Cc1nn(C)cc1C(=O)N1CCc2nc3ccncc3cc2C1	-19
15	CN1CCN(C(=O)C[C@@H]2CC[C@@H]3[C@H](COC[C@@H](O)CN3C(=O)Nc3ccc4c(c3)OCO4)O2)CC1	47
16	Cc1cc(F)ccc1NC(=O)Cn1c(=O)cc(C(=O)N2CCOCC2)c2ccccc21	9
17	COCCNC(=O)c1cc(N2CCC3(CCCN(C)C3=O)C2)ccn1 (stereo not drawn)	-5
18	FC(F)(F)c1cc(Oc2ccccc2)ncc1-c1nnc(-c2ccccc2Cl)o1	-59
19	COc1ccc(N2CCC(N(CCN3CCOCC3)C(=O)c3ccccn3)CC2)cc1	9
20	Cc1cccc(OCC(=O)N2CCC3(CC2)Nc2ccc(C)c(C)c2-n2cccc23)c1	29
21	COC(=O)c1c(C)oc(C)c1S(=O)(=O)N1CCC(O)(c2ccc(Cl)cc2)CC1	-30
22	CCOC(=O)c1c[nH]c2ccccc2c1=O	-64
23	Cc1ncsc1C(=O)N1CCOC(c2cc(C(=O)NCC(C)C)c3ccccc3n2)C1 (stereo not drawn)	4
24	CCOC(=O)N1CCC2(CC1)OC(=O)C(C)=C2C(=O)NCCCN1CCCC1=O	113
25	Cc1nc(N)ncc1C(=O)N(C)CCN(C)C1CCCC1	-7
26	Cc1ccc2cc(CN(CCO)CCO)c(=O)[nH]c2c1	5
27	CC(=O)CC1N(Cc2ccccc2)C(=O)C2N(C3CCCC3)C(=O)C3CC(=O)OC312 (stereo not drawn)	69
28	COc1cccc([C@@H]2CCN(Cc3ccc(S(C)(=O)=O)cc3)C[C@H]2O)c1	-6
29	O=c1cc(CN2CCCC(O)(CO)C2)[nH]c2c(F)cccc12 (stereo not drawn)	11
30	O=C(C[C@H]1CC[C@@H]2[C@H](COC[C@H](O)CN2Cc2ccc(Oc3ccccc3)cc2)O1)N1CCN(c2ccccc2)CC1	-26
31	C[C@@H]1COCc2cn(nn2)CC[C@H](C)C(=O)N1	6
32	Cc1ccc(C)n1CCN1CCN(C(=O)c2cccc(C(F)(F)F)c2)CC1	-50
33	CCC(NC(=O)Cn1cc(C)c(=O)[nH]c1=O)c1nc(C)c(C)s1 (stereo not drawn)	7
34	COc1ccc(N(Cc2nc(-c3cccc(C)c3)oc2C)S(=O)(=O)c2ccc(C)cc2)cc1	-46
35	CCn1nccc1C(=O)N1CCC(c2cc(Cc3ccccc3)[nH]n2)CC1	-1
36	O=C(NCCc1csc(C2CCCN(C(=O)/C=C/c3cccs3)C2)n1)C1CC1 (stereo not drawn)	-4
37	COCC1CN(CC2CCOCC2)Cc2nnn(CC3CC3)c21 (stereo not drawn)	-29
38	Cc1cc(C)n(Cc2c(-c3cc(=O)n4[nH]c(-c5cccs5)c(C)c4n3)noc2C)n1	-66
39	CN(CCNc1ncnc2c1CCN(C(=O)C1CC1)C2)S(C)(=O)=O	7
40	CCNc1ncc(CN2CCn3nc(C(=O)N4CCCC4)cc3C2)cn1	9
41	O=C(Nc1ccccc1)C12CC1/C(=N\O)c1ccccc1O2 (stereo not drawn)	21
42	CCc1nccc(-c2nccn2C(Cn2cccn2)c2ccccc2)n1 (stereo not drawn)	-10
43	CCn1nc2c(c1C(=O)N1CCc3cc(S(=O)(=O)NC)ccc31)CCCC2	12
44	O=C(N[C@@H]1CC[C@H](CC(=O)N2CCOCC2)O[C@H]1CO)c1cccc(F)c1	63
45	Cc1ccc(OC(=O)N(C)C[C@@H]2OCc3ccccc3-c3ccccc3C(=O)N([C@@H](C)CO)C[C@@H]2C)cc1	-31
46	C=CCO[C@H]1CCN(C(=O)c2ccc[nH]2)[C@H]1Cc1cnn(C)c1	5
47	C=CCN1C(=N)SC2CS(=O)(=O)CC21 (stereo not drawn)	19
48	Cc1cc(C(=O)N2CC[C@@H]3OCCN(Cc4cccnc4)[C@@H]3C2)n[nH]1	-1
49	O=C1CCc2cc(NC(=O)C3CCC3)ccc2N1	4
50	COc1ccccc1-n1nnc(C(=O)NC2(C)CCS(=O)(=O)C2)c1C (stereo not drawn)	1
51	COC(=O)c1cncc(N2C[C@@H]3C4CCC(CC4)[C@@H]3C2)n1	6
52	CN1/C(=c2/sc(=C3C(=O)NC(=S)NC3=O)n(C)c2=O)Sc2ccccc21	-5
53	CC(C)CN(CCn1c(=O)oc2ccccc21)Cc1cnn(C)c1	1
54	CCCNC(=O)c1ccc(N2CCC(c3nn(C)c(=O)n3CC)CC2)nc1	-5
55	O=C(Oc1ccccc1N1CCOCC1)c1cccnc1Sc1ccc(Cl)cc1	34
56	CC(=O)NC12CC3CC(C1)CC(C(=O)NC(C)CCc1ccc(F)cc1)(C3)C2 (stereo not drawn)	8
57	COc1ccc(-c2nc(Cn3nnc(C(=O)Nc4ccc(C)cc4C)c3C)c(C)o2)c(OC)c1	13
58	c1csc(C2Nc3ccccc3N2)c1	-22
59	Fc1ccc(C2=Nc3cccc4cccc(c34)N2)cc1	14
60	CCOC(=O)C(=O)Nc1ccc(-c2nc(-c3ccc(C)cc3C)co2)cc1	47

(list continues)
entry	structure	Tg IFNy HTS
61	Cn1cnc(S(=O)(=O)N2CCCN(C(=O)OC(C)(C)C)CC2)c1	3
62	CCOC(=O)c1noc2nc(C)n(Cc3nc(-c4ccc(OCC)cc4)oc3C)c(=O)c12	99
63	CN(C)CCN1CCOCC2(CCCN(C(=O)c3ccc4ccccc4n3)C2)C1 (stereo not drawn)	8
64	Cc1c(C)c2c(c(C)c1O)CCC(C)(C(=O)O)O2 (stereo not drawn)	0&8
65	CCN(Cc1ccc(F)cc1)C(=O)CCc1ccc(O)cc1	-5
66	Cc1nc(Nc2ccc(Cl)cc2)sc1C(=O)c1ccncc1	1
67	Cc1cc(C(=O)N2CCc3c(nc[nH]c3=O)C2)c(NC(=O)C(C)(C)C)s1	18
68	CCc1oc(C(=O)N[C@@H]2c3ccccc3C[C@@H]2O)cc1CN1CCCC1	-35
69	Cc1ccc(NC(=O)C(C)Oc2cccc(C(F)(F)F)c2)c(-c2cc(C)[nH]n2)c1 (stereo not drawn)	-33
70	CCc1nc(Cn2ccnc2-c2nc(-c3ccccc3)cs2)no1	61
71	COCc1nc(N2CCCC(Oc3ccc(F)cc3)C2)c2cnn(C)c2n1 (stereo not drawn)	15
72	Cc1ccc(C(=O)CSc2nnc(-c3ccncc3)n2C)cc1	-3
73	C[C@H](CO)N1C[C@H](C)[C@@H](CN(C)S(=O)(=O)c2ccc(Oc3ccccc3)nc2)OCc2cnnn2CCCC1=O	-18
74	CCN1CCCC(OC(=O)C(c2ccccc2)c2ccccc2)C1 (stereo not drawn)	-56&7
75	CC1(C)CC(NCc2ccccc2)CCO1 (stereo not drawn)	-13
76	O=C([C@H]1[C@H](CO)[C@H]2Cn3c(ccc(-c4ccc(F)cc4)c3=O)[C@H]2N1Cc1cocn1)N1CCCCC1	-3
77	O=C(NCCc1csc(-c2ccccc2)n1)C1CCN(S(=O)(=O)c2ccccc2F)CC1	5
78	Cc1oc2c(c1C(=O)NCc1cc(C(=O)O)co1)CCCC2	-12
79	COc1ccc(-c2nc(N3CCC4(CC3)OCCO4)c3ccccc3n2)cc1	-71
80	CC[N+](CC)(CCNC(=O)C(=O)NCC[N+](CC)(CC)Cc1ccccc1Cl)Cc1ccccc1Cl	9
81	c1ccn2c(C3CCN(Cc4cc5n(n4)CCCNC5)CC3)nnc2c1	4
82	Cc1cc(C)cc(NC(=O)c2nc(Nc3ccccc3)c3ccccc3n2)c1	5
83	CC(CN(C)c1nc(-c2cccnc2)nc2c1cnn2C)N1CCOCC1 (stereo not drawn)	-26
84	O=C(CN1C(=O)C2CCCCN2S(=O)(=O)c2ccccc21)N1CCOCC1 (stereo not drawn)	-3
85	Cc1cc2nc(-c3nccs3)cc(C(F)(F)F)n2n1	-5
86	Cc1ccc2c(c1)N(C(=O)Cn1c(=O)cc(C(=O)N3CCCCC3)c3ccccc31)CCO2	5
87	CCCCS(=O)(=O)N1C[C@H]2C[C@H](C(=O)Nc3ccccc3)[C@@H](C1)O2	-2
88	COc1ccc2c(c1)NC1(CCN(S(=O)(=O)c3cccc(C)c3)CC1)c1cccn1-2	10
89	O=C(c1cnccn1)N1CCO[C@H]2CCN(Cc3ccccc3Cl)C[C@H]21	15
90	C[C@H]1CN([C@@H](C)CO)C(=O)c2cc(-c3cccc(C(=O)N(C)C)c3)cnc2O[C@@H]1CN(C)C(=O)Cc1ccccn1	8

Overlap with the part before: 3 entries, followed by the next part.
entry	structure	Tg IFNy HTS
88	COc1ccc2c(c1)NC1(CCN(S(=O)(=O)c3cccc(C)c3)CC1)c1cccn1-2	10
89	O=C(c1cnccn1)N1CCO[C@H]2CCN(Cc3ccccc3Cl)C[C@H]21	15
90	C[C@H]1CN([C@@H](C)CO)C(=O)c2cc(-c3cccc(C(=O)N(C)C)c3)cnc2O[C@@H]1CN(C)C(=O)Cc1ccccn1	8
91	Cc1c(S(=O)(=O)C(C)C)c(N)n(Cc2ccc(Cl)cc2Cl)c1C	12
92	COc1ccccc1Oc1ccc(NS(=O)(=O)NCc2ccccc2)cc1	-53
93	CCNc1nc(C)nc2sc(CC)cc12	-7
94	C[C@H]1CN([C@@H](C)CO)C(=O)c2cc(NC(=O)C3CCCCC3)ccc2O[C@H]1CN(C)Cc1ccc2c(c1)OCO2	-3
95	COc1ccccc1CNC(=O)CC1N=C2c3ccccc3N=C(SCc3ccccc3F)N2C1=O (stereo not drawn)	-4
96	CC(C)c1nc(Cn2ccnc2-c2ccc(C3CCCCO3)s2)no1 (stereo not drawn)	25
97	CCn1cc2c(n1)C(COCC1CC1)CN(Cc1ccc(F)cc1)C2 (stereo not drawn)	-14
98	CCCNC(=O)N1CC2(CCN(S(=O)(=O)CC)CC2)c2c([nH]c3cc(OC)ccc23)[C@@H]1CO	-14
99	FC(F)(F)Oc1ccc(OCc2n[nH]c(=S)o2)cc1	-35
100	CCCC(=O)Nc1ccc2c(c1)OC[C@H](C)N(C(=O)c1cccnc1)C[C@@H](C)[C@@H](OC)CN(C)C2=O	-14
101	CN(C)CCN(Cc1ccccc1)C(=O)CCC(=O)Nc1ncc(-c2ccccc2)n1C	-49
102	CCN(CC)CCNC(=O)c1cc(NC(C)=O)ccc1Cl	47
103	O=C(Nc1cc(-c2ccccc2)nn1-c1ccccc1)c1ccccc1Cl	-24
104	CN([NH2+][O-])c1cc(O)ccc1O	27
105	Cn1cccc1C(=O)N1CCc2c(CN3CCCC3)nn(C)c2C1	-36

Structural class, the entries above with two or more sulfur atoms (4)
entry	structure	Tg IFNy HTS
36	O=C(NCCc1csc(C2CCCN(C(=O)/C=C/c3cccs3)C2)n1)C1CC1 (stereo not drawn)	-4
47	C=CCN1C(=N)SC2CS(=O)(=O)CC21 (stereo not drawn)	19
52	CN1/C(=c2/sc(=C3C(=O)NC(=S)NC3=O)n(C)c2=O)Sc2ccccc21	-5
77	O=C(NCCc1csc(-c2ccccc2)n1)C1CCN(S(=O)(=O)c2ccccc2F)CC1	5

New compounds follow:
entry	structure	Tg IFNy HTS
106	Cc1ccc2[nH]cc(CCN3CC(C(=O)Nc4ccc5c(c4)CCC5)CC3=O)c2c1 (stereo not drawn)	-10
107	Cc1ncsc1CCN(C)C(=O)c1ccccc1C1CCNC1 (stereo not drawn)	-6
108	Nc1nc(NCCc2ccc(O)cc2)nc2nc(-c3ccco3)nn12	-80*
109	Cc1nc2c(C)cccc2cc1C(=O)NCC(c1ccc2c(c1)OCO2)N(C)C (stereo not drawn)	-3
110	COc1ccc(OC)c(NC(=O)c2cncc(NS(=O)(=O)c3ccc(Br)cc3)c2)c1	19
111	C=CCn1c(Cc2ccccc2)n[nH]c1=O	-2
112	CCCN(C)C[C@H]1OCCCC[C@H](C)Oc2ccc(NC(=O)CCCN(C)C)cc2C(=O)N([C@H](C)CO)C[C@@H]1C	-9
113	O=C(NCCNc1cccnc1)c1ccc(-c2ccn[nH]2)cc1	-5
114	NC(=O)N1CCCn2c(nc(CNC(=O)CC3CC3)cc2=O)C1	96
115	CC(C)NC(=O)c1ccnc(N2CC(c3cccnc3)C2)c1	7
116	O=C(NCCCc1ccccn1)c1ccc(N[C@H]2CCCC[C@@H]2O)nc1	7
117	CC(C)n1nccc1C(=O)NCCN1CCc2ccccc21	7
118	CO[C@@H]1CN(C)C(=O)c2cc(NC(=O)Nc3cc(F)ccc3F)ccc2OC[C@H](C)NC[C@H]1C	?
119	CCC1C(=O)NCCN1C(=O)c1cc(OC)ccc1-c1ccc(OC)cc1 (stereo not drawn)	-1
120	c1ccc2nc(-c3nc4ccccc4s3)ccc2c1	265
121	COc1cccc(NC(=O)C(=O)NCCc2csc(-c3ccc(F)cc3)n2)c1	26
